# LANA-nucl inh = inhibitors of KSHV LANA binding to nucleosomes; FITC-LANA1-23 / chicken nucleosome fluorescence polarization; hits give low values; z-score (no concentration beside the values); 51,000 tested, 0.3% active;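 active means both repeat wells score below -2 in polarization z-score versus plate sample wells, excluding overly bright wells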;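 further: 100 nL library stock added to about 30 µL; numbers are from one replicate; some results filed as inactive read as strong as hits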
#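 test system = FITC-LANA peptide and chicken nucleosomes | amount = 240 nM purified chicken nucleosomes (480 nM peptide binding sites), final | reagent = 50 nM FITC-LANA1-23 probe | medium = TEN-BT buffer, pH 7.5 | doses = single compound addition by pin transfer, 100 nL per well | timing = 10–45 min, room temperature | detection = fluorescence polarization | repeats = duplicate plates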
# Ab BasE inh = inhibitors of Acinetobacter baumannii siderophore enzyme BasE; purified BasE, fluorescence polarization binding displacement; inhibition, % (concentration not given with the values); 84,000 tested, 0.1% active; AID 485350;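 active means both replicates above 25% with normal brightness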;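 further: 0% = negative plate control signal and 100% = positive plate control signal; stock transfer was 100 nL into about 30 µL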
# * = called active by the depositor; · = not tested or not shown; & = joins results of further samples. An excerpt (hit frequency here may not be typical).
# Preview (7 entries):
SMILES,LANA-nucl inh,Ab BasE inh
CC1SC(=S)N(CCCC(=O)O)C1=O (configuration not stated),0.14,1.1
CC(=O)n1cc(C2C(=O)CC(C)(C)CC2=O)c2ccccc21,-0.82,1.9
CCC(=O)N1CCN(c2ccc(OC)cc2)CC1,0.51,-0.5
N#C/C(=N\Nc1cc(C(=O)O)cc(C(=O)O)c1)C(=O)c1ccccc1,·,3.1
Cc1ccc(-c2noc(CNC(=O)C3CCCCC3)n2)cc1,-0.19,1.2
CC1CN(c2ncc(C(=O)OCc3ccc(Cl)cc3)c(C(F)(F)F)n2)CC(C)O1 (configuration not stated),-0.32,0.6
COc1cccc(-n2c(=O)c3cc(OC)c(OC)cc3n(CC(N)=O)c2=O)c1,-0.099,4.8

# Results (from the top)
SMILES,LANA-nucl inh,Ab BasE inh
CC1SC(=S)N(CCCC(=O)O)C1=O (configuration not stated),0.14,1.1
CC(=O)n1cc(C2C(=O)CC(C)(C)CC2=O)c2ccccc21,-0.82,1.9
CCC(=O)N1CCN(c2ccc(OC)cc2)CC1,0.51,-0.5
N#C/C(=N\Nc1cc(C(=O)O)cc(C(=O)O)c1)C(=O)c1ccccc1,·,3.1
Cc1ccc(-c2noc(CNC(=O)C3CCCCC3)n2)cc1,-0.19,1.2
CC1CN(c2ncc(C(=O)OCc3ccc(Cl)cc3)c(C(F)(F)F)n2)CC(C)O1 (configuration not stated),-0.32,0.6
COc1cccc(-n2c(=O)c3cc(OC)c(OC)cc3n(CC(N)=O)c2=O)c1,-0.099,4.8
O=C(O)c1nccnc1-c1nc2ccccc2s1,·,-0.2
CN(c1ccc(C(=O)NCCC2=CCCCC2)cc1)S(C)(=O)=O,0.32,-0.2
CCOc1ccccc1-c1noc(-c2ccncc2)n1,-0.82,-0.9

# The closing 4 records of the part above open the next one:
SMILES,LANA-nucl inh,Ab BasE inh
COc1cccc(-n2c(=O)c3cc(OC)c(OC)cc3n(CC(N)=O)c2=O)c1,-0.099,4.8
O=C(O)c1nccnc1-c1nc2ccccc2s1,·,-0.2
CN(c1ccc(C(=O)NCCC2=CCCCC2)cc1)S(C)(=O)=O,0.32,-0.2
CCOc1ccccc1-c1noc(-c2ccncc2)n1,-0.82,-0.9
CSc1nc2ccc(NS(=O)(=O)c3ccccc3C(F)(F)F)cc2s1,·,2.3
Cc1cc(C)nc(SCc2nc3scc(C)n3c2Br)n1,·,0.7
O=C(CCn1cccc1)NCCCc1ccccc1,-1.3,0.9
CCc1cc(S(=O)(=O)n2ccnc2)ccc1OC,-0.56,-0.1
CCOC(=O)c1cnc2c(ccc3ccccc32)c1NCCOC(=O)C(C)(C)C,·,-1.7
Cc1ccc(S(=O)(=O)CC(C)N2CCOCC2)c(S(=O)(=O)CC(C)N2CCOCC2)c1 (configuration not stated),·,5.3
COC(=O)c1ccc2c(c1)NC(=O)C(C)N2 (configuration not stated),5.8,-23
COCCn1c(SCC(=O)NC23CC4CC(CC(C4)C2)C3)nnc1-c1ccncc1,·,-0.1
CC(C)(Oc1ccc(Cl)cc1)C(=O)O,0.52&-0.39,-1.7&1.3
O=C(Nc1ccc(NC(=O)C2CC2)nc1)c1cccc(F)c1,-1.1,0.6
COC(=O)C1=C(C)N(C)C(=O)/C1=C\c1cc(C)n(-c2ccc(C)cc2)c1C,·,0.5
CCCCC(=O)N1c2ccccc2N2C(c3c(C)cc(C)cc3C)=NON12,0.39,2.5
Nc1cccc(NC(=O)CCC(=O)NCc2ccco2)c1,0.17,-0.4
CC1Cc2ccccc2N1C(=O)COC(=O)c1cc2ccccc2oc1=O (configuration not stated),·,2.9
CCc1cc(C(=O)O)c(NC(=O)c2ccccc2)s1,0.098,-1.2
CC1CC(=O)NN=C1c1ccc(Cl)cc1 (configuration not stated),0.41,-0.5
CC1CN(C)C(C)CC1OC(=O)c1ccccc1 (configuration not stated),0.066,2.7
CC(OC(=O)c1ccc2c(c1)NC(=O)C1CCCN21)C(=O)Nc1cccc(C#N)c1 (configuration not stated),·,1.8
O=C(OCCCn1c(=O)[nH]c2ccccc21)c1ccccc1SCC(=O)N1CCCC1,·,-0.6
CCN(CC)c1ccc2cc(C(=O)Nc3ccc(C)cc3)c(=N)oc2c1,-4.7,-1.4
COC(=O)Nc1nc2ccc(OC)cc2[nH]1,-0.84,1.6
CCCN1CCC(Nc2ccc3c(c2)CCC3)CC1,-0.55,0.6
NNC(=O)Cn1nnc(N2CCCC2)n1,·,0.1
O=C(CCCSc1cccc[n+]1[O-])c1ccc(F)cc1,·,0.5
Cc1cc(F)ccc1S(=O)(=O)Nc1ccccc1C(=O)N1CCCCC1,·,2.0
COc1ccc(NC(=S)NCCCO)c(OC)c1,-0.72,2.5
CCc1ccccc1NS(=O)(=O)c1ccc2[nH]cc(C(=O)NC(C)CC)c(=O)c2c1 (configuration not stated),0.019,-1.8
COCCNS(=O)(=O)c1c[nH]c(C(=O)OC)c1,-0.9,-0.1
CCCn1c(Nc2ccccc2)nc2ccccc21,-0.55,4.5
Nc1nc(N)nc(SCC(=O)N2CCCC2)n1,·,-1.4
COc1ccc(NC(=O)C2CC(=O)N(CCc3ccc(Cl)cc3)C2)cc1 (configuration not stated),-1.3,·
Cc1cc(C(=O)O)c(Cl)nc1C,1.1,2.4
N#Cc1c(Nc2ccc(Cl)cc2)n[nH]c1N,·,6.1
CC(=O)N/N=C/c1cc2ccccc2nc1Cl,·,-1.1
O=C(O)CCn1c(=S)n(CCC(=O)O)c2ccccc21,2.2,-3.4
CCC(Oc1ccccc1-c1nnc(-c2ccccc2)o1)C(=O)N1CCCC1 (configuration not stated),-0.24,3.8
CN(Cc1ccccc1)C(=O)CCn1ccc2cc(S(=O)(=O)N3CCCCC3)ccc21,·,-2.2
Nc1ccc(CN2C(=O)c3ccccc3C2=O)cc1,-0.46,2.9
O=C(Nc1ccc(C2=NCCO2)cc1)c1ccc(C(F)(F)F)cc1,·,0.4
Cn1c(=O)c2c(nc(N3CCN(c4ccccc4)CC3)n2CCSc2nnnn2-c2ccccc2)n(C)c1=O,1.1,-0.1
COc1ccc(C=Nc2ccc3[nH]ncc3c2)c(O)c1,0.079,-0.1
Cc1ccc(S(=O)(=O)NC(=O)c2nnc(-c3ccc(F)cc3)o2)cc1,·,3.6
CN(C)c1nc(SCC#N)nc(N(C)C)n1,-0.75,0.9
CO[C@@]1(NC(=O)CSCC#N)C(=O)N2C(C(=O)O)=C(CSc3nnnn3C)CS[C@@H]21,0.19,-1.4
CC(C)c1nc(CN(C)C(=O)N[C@H](C(=O)N[C@@H](Cc2ccccc2)C[C@H](O)[C@H](Cc2ccccc2)NC(=O)OCc2cncs2)C(C)C)cs1,-0.047,·
CC(C)c1ccc(S(=O)(=O)Nc2cc3c4c(oc3c3ccccc23)CCCC4)cc1,·,-1.7
CN(C)c1nnnn1Cc1ccc(Cl)cc1Cl,0.96,·
Cn1ccnc1C(=O)c1cc(Sc2ncccc2C#N)nc2ccccc12,·,1.8
CCOC(=O)c1c(N2CCCC2=O)sc(C)c1CC,·,0.5
COC(=O)c1c(C)oc2ccc(OC(=O)c3ccc(OC)cc3)cc12,·,1.5
# Next part.
SMILES,LANA-nucl inh,Ab BasE inh
Nn1c(SCC(=O)c2ccc(Cl)cc2)nc2ccccc2c1=O,·,0.3
CCCS(=O)(=O)c1ccc(NC(=O)Nc2ccc(Cl)cc2Cl)cc1,·,2.5
Cc1ccc(CNC(=O)c2oc3ccccc3c2-n2cccc2)cc1,-0.45,·
N=c1oc2ccccc2oc1=N,-0.11,9.8
CCCc1nc2cc3sc(CCC)nc3cc2s1,-0.18,1.0
CC1CN(S(=O)(=O)c2ccc(NC(=O)C(C)Oc3ccc(F)cc3)cc2)CC(C)O1 (configuration not stated),0.019,0.5
Cc1ccc(-n2c(C)cc(C=C3C(=O)NC(=O)NC3=O)c2C)cc1,-3,4.0
COC(=O)COc1ccc(C)cc1C(C)(C)C,-0.16,-0.6
C(=N\c1nc2ccccc2[nH]1)/c1ccc2c(c1)OCO2,0.15,0.1
O=S(=O)(c1ccc2c(c1)OCCO2)N1CCCC1c1cccs1 (configuration not stated),·,0.5
Cc1cc(=O)oc2cc(OCC(=O)OCC(=O)Nc3ccc4c(c3)OCCO4)ccc12,·,-1.4
CN1CC[n+]2cnc3ccccc3c21,0.15,2.7
O=C(COC(=O)c1n[nH]c2ccccc12)Nc1ccc(S(=O)(=O)N2CCCC2)cc1,·,0.8
CN1C(=O)c2ccccc2Sc2ccc(NC(=O)N3CCCCC3)cc21,-0.54,-1.1
CC(=O)ON=C1CC(C)(C)NC(C)(C)C1,0.32,-1.7
O=C(Nc1cccc(C(=O)N2CCN(c3ccccc3)CC2)c1)C1=CSCCO1,-0.28,1.6
COC(=O)c1c(O)cc(=O)n2c1CCC2,·,1.3
Nc1c(C(=O)c2ccc(Cl)cc2)oc2nc(-c3ccco3)cc(-c3cccs3)c12,·,-0.8
COc1ccc(CCC(=O)NC2CCC(C)CC2)cc1 (configuration not stated),·,0.9
C/C(=N\O)C1(C)N(O)C(C)(C)C(c2ccc(C)cc2)=[N+]1[O-] (configuration not stated),·,1.3
O=C1CCN(C(=S)NCCc2ccccc2)CC1,·,0.1
O=c1c2c3nc4ccccc4nc3n(CCN3CCOCC3)c2ncn1CCN1CCOCC1,·,1.6
CSC(=Nc1cc(C(F)(F)F)cc(C(F)(F)F)c1)N1CCCC1,0.21,·
COc1ccc(C2Sc3ccccc3N(CCN(C)C)C(=O)C2OC(C)=O)cc1 (configuration not stated),-0.018&-0.73,-0.3
COc1cccc(OC)c1C(=O)ON=C1C=CC(=O)C=C1,-0.24,2.1
O=C1CNC(=O)c2c(nc3n2CCC3)N1,1.2,-0.5
CNC(=O)c1ccc2nc(N)sc2c1,·,0.6
COc1ccc(/C=N/N=C2/NC(=O)/C(=C(/C)c3nonc3C)S2)cc1OC,0.57,-1.0
CC1=C(C)CS(=O)N(c2ccc(S(N)(=O)=O)cc2)C1 (configuration not stated),·,0.5
C=CCN1C(=O)C(O)(c2c[nH]c3ccccc23)c2cc(Cl)ccc21 (configuration not stated),0.48,-0.2
CCCNC(=O)NC1CCN(c2nc(C)cc(C)n2)CC1,-1,0.7
COC(=O)c1cc(S(=O)(=O)N2CCC(Cc3ccccc3)CC2)oc1C,-0.017,-2.5
CC(N)c1ccc2c(c1)CCCC2 (configuration not stated),0.54,-53
O=C(COc1ncnc2ccccc12)c1ccc2c(c1)OCCO2,·,-4.1
Cc1c(Cl)cccc1NC(=O)CCn1cnc2ccccc2c1=O,-0.2,-0.9
O=C(c1ccco1)N1CCC(c2nc3ccccc3s2)CC1,·,-1.6
CN(C1=NC(=O)/C(=C\c2ccccc2Cl)S1)c1ccc(O)cc1,·,1.2
O=c1oc2c3ccccc3oc(=O)c2c2ccccc12,-0.6,3.5
O=C(O)CCN1C(=O)/C(=C/c2ccccn2)SC1=S,·,3.6
Cc1ccccc1NS(=O)(=O)c1ccc(N2CCCC2=O)cc1,-0.37,1.7
Fc1c(F)c(F)c(Sc2nnc(-c3cccs3)n2CC2CCCO2)c(F)c1F (configuration not stated),·,1.3
CCc1cc2c(=O)c(-c3nc4ccccc4n3C)c(C(C)C)oc2cc1O,3,-0.1
CC(c1ccccc1)n1c(-c2cccc(S(=O)(=O)N3CCOCC3)c2)n[nH]c1=S (configuration not stated),·,0.5
CCC(CC)C(=O)NC12CC3CC(CC(C3)C1)C2,0.22,0.2
Cc1ccc(C(=O)Cn2c3c(sc2=N)CCCC3)cc1,0.34,1.2
C=CCNC(=O)Nc1ccc(F)c(Cl)c1,0.14,-1.9
N#Cc1ccc(S(=O)(=O)N2CCC(C(=O)O)CC2)cc1,·,-0.6
CNC(=S)c1sc2ccccc2c1C,·,-0.5
CC1(C)C(=O)N(c2ccccc2F)C(=O)c2ccccc21,·,0.0
Cc1ccc(-c2csc(C3=C(O)CN(CCCn4ccnc4)C3=N)n2)cc1,·,-0.2
# (continued)
SMILES,LANA-nucl inh,Ab BasE inh
COCCNC(=O)Cc1csc2nc(-c3ccc(Cl)cc3)cn12,0.43,-3.5
CCOCCC(=O)Nc1ccc(OC)cc1,-1.2,2.4
Cc1cc(C)cc(NC(=O)CSc2nc(-c3ccccc3)nn2C(=O)c2ccco2)c1,-0.57,-0.3
CC(N=C(NC#N)Nc1ccncc1)C(C)(C)C (configuration not stated),0.26&0.14&0.14&-0.12&0.032,1.3&-0.2&-0.8
CC1(O)C2C3CC4C5C3C1C5C1(OCCO1)C42 (configuration not stated),·,0.2
CC(=O)NC1=NN(c2ccccc2)C(=O)C1,-2.1,-0.1
Cc1cc(Br)c(-n2cccc2)c(Br)c1Cl,·,3.4
CNC(=O)C1CCN(S(=O)(=O)c2ccccc2)CC1,-1.2,1.1
Cc1ccc2nc(N3CCCC3)nc(-c3ccccc3)c2c1,·,2.2
CSc1nc(C(=O)O)cc(=O)[nH]1,-1.2,1.9
Cn1cc(C2NC(=O)c3c(sc4c3CCCC4)N2)c2ccccc21 (configuration not stated),·,1.0
CCOC(=O)c1oc2ccccc2c1COC(=O)c1cccc(S(=O)(=O)N(C)C)c1,·,-0.2
Cc1ccc2[nH]c(=O)c(N3CCOCC3)c(-c3ccccc3)c2c1,-0.61,0.6
CCC(=O)Nc1nnc(SCc2cc(=O)c(OC(=O)c3cccs3)co2)s1,0.025,3.2
N#CCCN(Cn1c2ccccc2c2ccccc21)c1ccccc1,·,-0.5
CN1CCN(C(=O)CSc2cc(=O)n(C)c3ccccc23)CC1,0.81,0.9
COc1cc(C(=O)NC2CC2)ccc1OC(F)F,·,0.6

# Compound activity deposited in PubChem BioAssay by ICCB-Longwood Screening Facility, Harvard Medical School.
